MenB inh: M. tuberculosis MenB inhibitors, primary screen, biochemical, absorbance. 1,4-dihydroxy-2-naphthoyl-CoA synthase (Mycobacterium tuberculosis (strain ATCC 25618 / …. MenB enzyme assay, absorbance read-out; some hits fall short of the stated cut. inhibition, %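 (about 12 µg/mL by stock and volumes)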. 100,000 compounds, 0.43% hits. AID 540299, 2011;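 active means mean of two replicates above 30%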;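 further: 0% = no compound and 100% = wells with inactive enzyme; the first replicate is given; strong numbers were not always called active; inactives centre near -10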
Target sequence (P9WNP5 whole entry, looked up): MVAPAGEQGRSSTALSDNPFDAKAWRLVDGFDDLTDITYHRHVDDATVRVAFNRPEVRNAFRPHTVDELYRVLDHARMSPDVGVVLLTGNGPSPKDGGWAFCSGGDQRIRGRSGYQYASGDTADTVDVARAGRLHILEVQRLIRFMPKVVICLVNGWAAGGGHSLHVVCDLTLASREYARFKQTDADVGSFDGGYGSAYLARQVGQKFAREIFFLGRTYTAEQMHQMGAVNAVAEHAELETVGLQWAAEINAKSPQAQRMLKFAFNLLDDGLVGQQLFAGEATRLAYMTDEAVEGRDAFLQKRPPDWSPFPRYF
Mtb MbtI inh: MbtI salicylate synthase inhibitors, primary screen, biochemical, fluorescence intensity; purified MbtI enzyme, fluorescence intensity read-out; P9WFX0; 100,000 compounds, 0.89% hits; inhibition, %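 (about 17 µg/mL by stock and volumes)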;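 active means above 50% in both replicates, above 80% if mildly self-fluorescent; inactive means the rest, strongly fluorescent compounds included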;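 further: 0% = mean of negative and 100% = mean of positive controls; one replicate is shown; some compounds called inactive have numbers as strong as hits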
Polio RdRp inh: poliovirus RdRp elongation inhibitors, primary screen, biochemical, fluorescence polarization, total intensity; Genome polyprotein (Poliovirus type 1 (strain Mahoney)), P03300; poliovirus polymerase elongation; active compounds read low; % elongation, % (compound at 16.7 µg/mL); 150,000 compounds, 0.66% hits; AID 588519, 2011; in the data active means % elongation below about 90%; further: some results filed as inactive read as strong as hits
Target sequence (P03300 1749-2209 limits assumed): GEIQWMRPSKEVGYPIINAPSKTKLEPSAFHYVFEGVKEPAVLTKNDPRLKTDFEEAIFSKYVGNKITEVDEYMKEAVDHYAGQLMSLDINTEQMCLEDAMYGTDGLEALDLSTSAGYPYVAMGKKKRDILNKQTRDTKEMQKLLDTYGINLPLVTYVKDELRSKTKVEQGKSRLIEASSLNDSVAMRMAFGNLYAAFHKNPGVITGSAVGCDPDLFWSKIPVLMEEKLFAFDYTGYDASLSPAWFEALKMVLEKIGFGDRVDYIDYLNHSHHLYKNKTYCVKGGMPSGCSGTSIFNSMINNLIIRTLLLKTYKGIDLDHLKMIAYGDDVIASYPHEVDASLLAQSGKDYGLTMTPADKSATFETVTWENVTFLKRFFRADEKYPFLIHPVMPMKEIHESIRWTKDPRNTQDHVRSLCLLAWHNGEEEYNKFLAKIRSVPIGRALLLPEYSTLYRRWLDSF
Polio RdRp inh intensity: further read-out of Polio RdRp inh, marked with its call; % elongation; measured here: total intensity read-out; formula for this scale not given here;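 total fluorescence in place of polarization; lower means less elongation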
The depositor's hits bear a star.

Screening O=C(/C=N/O)Nc1cccc(C(=O)O)c1 returned MenB inh -1, Mtb MbtI inh 20, Polio RdRp inh 102 and Polio RdRp inh intensity 95.
For CCOC(=O)C1C(=O)CN(c2ccccc2)C1=O (configuration not stated) the results were MenB inh -3, Polio RdRp inh 105 and Polio RdRp inh intensity 104.
c1ccc(CN2CCN(Cc3ccc4c(c3)OCCO4)CC2)cc1 was read as MenB inh 8, Mtb MbtI inh -2, Polio RdRp inh 100 and Polio RdRp inh intensity 100.
For O=c1oc2c(o1)=C(c1ccccc1)S(=O)(=O)C=2c1ccccc1 the results were MenB inh 16, Mtb MbtI inh 58*, Polio RdRp inh 108 and Polio RdRp inh intensity 110.
O=C(NNc1ccc(Cl)cc1)C1CCC1 was read as MenB inh -5, Mtb MbtI inh 2, Polio RdRp inh 99 and Polio RdRp inh intensity 99.
CC(C)NC(=O)CCc1nc2cccnc2n1-c1ccccc1 was read as MenB inh -8, Mtb MbtI inh -13, Polio RdRp inh 104 and Polio RdRp inh intensity 109.
Screening CC(C(=O)N1CCN(Cc2ccccc2)CC1)n1sc2ccccc2c1=O (configuration not stated) returned MenB inh -1, Mtb MbtI inh -3, Polio RdRp inh 103 and Polio RdRp inh intensity 103.
Screening CNC(=O)c1c(C)csc1NC(=O)C(F)(F)F returned MenB inh -3, Mtb MbtI inh -1, Polio RdRp inh 102 and Polio RdRp inh intensity 103.
CN(Cc1nc2ccccc2n1C)c1ccccc1 was read as MenB inh -71, Mtb MbtI inh -3, Polio RdRp inh 101 and Polio RdRp inh intensity 99.
`CCOc1ccc(C(=O)NCCCN2CCCC2=O)cc1` gave MenB inh -29, Mtb MbtI inh -4, Polio RdRp inh 102 and Polio RdRp inh intensity 105.
For CSc1scc2c1-c1nc(SCC(=O)c3ccc(Cl)cc3)ncc1CC2 the results were MenB inh -1, Mtb MbtI inh 2, Polio RdRp inh 101 and Polio RdRp inh intensity 109.
COc1ccc(-c2noc(CN3CCCC(C(=O)Nc4ccc(F)c(Cl)c4)C3)n2)cc1OC (configuration not stated) was read as MenB inh -28, Mtb MbtI inh 1, Polio RdRp inh 100 and Polio RdRp inh intensity 101.
O=C(COC(=O)CC1CCCC1)Nc1ccc(Br)cc1F was read as Mtb MbtI inh -11, Polio RdRp inh 100 and Polio RdRp inh intensity 98.
C(=Nc1cccc(/N=C/c2ccco2)n1)c1ccco1 was read as MenB inh -38, Polio RdRp inh 44 and Polio RdRp inh intensity 247.
For CCCCCOc1ccc(OC(=O)c2ccncc2)cc1 the results were MenB inh -30, Mtb MbtI inh 0, Polio RdRp inh 103 and Polio RdRp inh intensity 99.
`CCN(CC)Cn1c(=O)sc2ccccc21` gave MenB inh -35, Mtb MbtI inh 27, Polio RdRp inh 103 and Polio RdRp inh intensity 103.
`O=C(ON1C(=O)c2cccc3cccc(c23)C1=O)c1cccnc1` gave MenB inh -1, Mtb MbtI inh -3, Polio RdRp inh 100 and Polio RdRp inh intensity 100.
Screening O=C(CN(C(=O)c1ccc(Cl)nc1)c1ccc2c(c1)OCCO2)NCc1ccco1 returned MenB inh 15, Mtb MbtI inh 0, Polio RdRp inh 101 and Polio RdRp inh intensity 103.
For Cc1c(Cl)cn2c(=O)cc(CN3CCN(C(=O)c4ccco4)CC3)nc2c1Cl the results were MenB inh -2, Mtb MbtI inh 0, Polio RdRp inh 102 and Polio RdRp inh intensity 105.
For CCc1ccc(N2CC(c3nc4ccccc4n3CC)CC2=O)cc1 (configuration not stated) the results were MenB inh -11, Mtb MbtI inh -7, Polio RdRp inh 99 and Polio RdRp inh intensity 100.
For Cc1csc(NC(=O)C2CC2)n1 the results were Mtb MbtI inh 10, Polio RdRp inh 103 and Polio RdRp inh intensity 103.
Cc1ccccc1N1CCN(S(=O)(=O)c2cccs2)CC1 was read as MenB inh -34, Mtb MbtI inh -1, Polio RdRp inh 102 and Polio RdRp inh intensity 102.
CCOc1ccc(OCC(=O)O)cc1 was read as Mtb MbtI inh -9, Polio RdRp inh 103 and Polio RdRp inh intensity 101.
`N#C[C@@H]1C[C@@](C#N)(C(=O)c2ccccc2)[C@H]2C=Cc3ccccc3N12` gave MenB inh -3, Polio RdRp inh 109 and Polio RdRp inh intensity 139.
CC(=NCc1ccc(Cl)c(Cl)c1)c1ccccc1O was read as MenB inh -10, Mtb MbtI inh -6, Polio RdRp inh 103 and Polio RdRp inh intensity 108.
Screening N#CC(C#N)=CNCc1cccs1 returned MenB inh -5, Mtb MbtI inh 1, Polio RdRp inh 102 and Polio RdRp inh intensity 103.
`O=C1Cc2ccccc2CC(=O)N1` gave MenB inh -3, Mtb MbtI inh -23, Polio RdRp inh 101 and Polio RdRp inh intensity 101.
`N#Cc1ccc(NC(=O)c2oc3ccccc3c2CSCc2ccccc2)cc1` gave MenB inh -55, Mtb MbtI inh 82, Polio RdRp inh 96 and Polio RdRp inh intensity 99.
`CC(C)(C)C(=O)CSc1nc2ccccc2c(=O)n1-c1ccccc1` gave Mtb MbtI inh -14, Polio RdRp inh 104 and Polio RdRp inh intensity 108.
COc1ccc(-n2c(SCC(N)=O)nc3ccccc3c2=O)cc1 was read as MenB inh -13, Mtb MbtI inh 12, Polio RdRp inh 101 and Polio RdRp inh intensity 104.
CCOC(=O)c1sc2nc(Cc3ccccc3)nc(NCCC3=CCCCC3)c2c1C was read as MenB inh -14, Mtb MbtI inh -25, Polio RdRp inh 103 and Polio RdRp inh intensity 103.
For CCn1cnc2c(oc3ccccc32)c1=O the results were MenB inh -7, Mtb MbtI inh 7, Polio RdRp inh 102 and Polio RdRp inh intensity 100.
Screening O=C(N1CCC(n2cnc3cccnc32)CC1)N1c2ccccc2Sc2ccccc21 returned MenB inh -3, Mtb MbtI inh -2, Polio RdRp inh 102 and Polio RdRp inh intensity 101.
For CCOC(=O)c1ccccc1NC(=S)N1CCC(N2CCCCC2)CC1 the results were MenB inh -10, Mtb MbtI inh -8, Polio RdRp inh 101 and Polio RdRp inh intensity 102.
O=C(NCC(O)c1ccccc1)c1ccc(Cl)cc1 (configuration not stated) was read as MenB inh -34, Mtb MbtI inh -5, Polio RdRp inh 99 and Polio RdRp inh intensity 102.
`CC(C)CN(C(=O)C1CC1)C1CCS(=O)(=O)C1` (configuration not stated) gave MenB inh 3 and Mtb MbtI inh -11.
`O=C(Cn1ncc2ccccc21)NCc1ccc(Cl)cc1` gave MenB inh -31, Mtb MbtI inh -4, Polio RdRp inh 105 and Polio RdRp inh intensity 98.
For O=C(Cn1ccn(-c2ccccc2)c(=O)c1=O)c1ccc(F)cc1 the results were MenB inh -22, Mtb MbtI inh -13, Polio RdRp inh 106 and Polio RdRp inh intensity 107.
For O=C(OCc1nc(-c2ccccc2Cl)no1)c1ccc2c(=O)n3c(nc2c1)CCCCCC3 the results were MenB inh 0, Mtb MbtI inh 2, Polio RdRp inh 99 and Polio RdRp inh intensity 106.
`CCOC(=O)CC1c2cc(OCC)c(OCC)cc2CCN1S(C)(=O)=O` (configuration not stated) gave MenB inh -16, Mtb MbtI inh 6, Polio RdRp inh 103 and Polio RdRp inh intensity 101.
c1ccc(-c2nnc(CN3CCc4ccccc4C3)o2)cc1 was read as MenB inh -9, Mtb MbtI inh -10, Polio RdRp inh 102 and Polio RdRp inh intensity 101.
For CC(C)Cc1ccc2c(N)c(C(=O)O)sc2n1 the results were MenB inh -25, Mtb MbtI inh -2, Polio RdRp inh 101 and Polio RdRp inh intensity 107.
Screening Cn1c(=O)c(C#N)c(-c2ccccc2)n2cnnc12 returned MenB inh -10, Polio RdRp inh 109 and Polio RdRp inh intensity 113.
Screening COc1cc2c(cc1NC(=O)C(C)NCc1ccc3c(c1)OCO3)oc1ccccc12 (configuration not stated) returned MenB inh -29, Mtb MbtI inh inactive, Polio RdRp inh 100 and Polio RdRp inh intensity 108.
Screening CCCN1CCN(CCCNC(=O)c2cnc(SC)nc2-c2ccccc2)CC1 returned MenB inh -15, Mtb MbtI inh -2, Polio RdRp inh 102 and Polio RdRp inh intensity 101.
`Cc1ccc(C)c(N2C(=O)CS/C2=N\NC(=O)c2ccc(S(=O)(=O)N3CCCC3)cc2)c1` gave MenB inh 21, Mtb MbtI inh 2, Polio RdRp inh 101 and Polio RdRp inh intensity 105.
`CC/C(C)=N/n1c(-c2ccc3c(c2)NC(=O)CO3)csc1=Nc1ccc(C)cc1` gave MenB inh -12, Mtb MbtI inh 10, Polio RdRp inh 147 and Polio RdRp inh intensity 154.
For Cc1ccc(NNC(=O)C(C)(C)O)c(C)c1 the results were MenB inh -17, Mtb MbtI inh -5, Polio RdRp inh 106 and Polio RdRp inh intensity 109.
`CC1(C)CC(=O)C=C(NCCCNC2CCCCC2)C1` gave MenB inh 1, Mtb MbtI inh 5, Polio RdRp inh 101 and Polio RdRp inh intensity 106.
O=C(Nc1cc(N2CCCCC2)ncn1)c1ccc(F)cc1 was read as MenB inh -23, Mtb MbtI inh -19, Polio RdRp inh 105 and Polio RdRp inh intensity 101.
For O=c1cc(Nc2ccccc2)cc[nH]1 the results were MenB inh 3, Mtb MbtI inh 68, Polio RdRp inh 102 and Polio RdRp inh intensity 105.
For O=C(O)c1ccc(CN2CCc3ccccc3C2)cc1 the results were MenB inh 9, Mtb MbtI inh 5, Polio RdRp inh 106 and Polio RdRp inh intensity 106.
CSC1=NC2(CCN(C(=O)OC(C)(C)C)CC2)Nc2ccccc21 was read as MenB inh 3, Mtb MbtI inh 14, Polio RdRp inh 102 and Polio RdRp inh intensity 105.
`Cc1cc(Br)cc(Br)c1` gave MenB inh 0, Mtb MbtI inh 9, Polio RdRp inh 102 and Polio RdRp inh intensity 96.
For Cc1cccc(Oc2ncc(F)c(Oc3cccc(C)c3)n2)c1 the results were MenB inh -29, Polio RdRp inh 99 and Polio RdRp inh intensity 99.
CSC1CCCCC1(O)CSc1nc2c(cc1C#N)CCCC2 (configuration not stated) was read as MenB inh -21, Mtb MbtI inh 9, Polio RdRp inh 98 and Polio RdRp inh intensity 103.
Cc1ccc(-c2nnc(NC(=O)CCS(=O)(=O)c3ccc(F)cc3)o2)c(C)c1 was read as MenB inh -7, Mtb MbtI inh 0, Polio RdRp inh 102 and Polio RdRp inh intensity 109.
For O=C1CCC(=O)N1c1nccs1 the results were MenB inh -19, Mtb MbtI inh -3, Polio RdRp inh 101 and Polio RdRp inh intensity 101.
For COc1ccc(NC(=O)CCc2nnc3n(Cc4ccccc4)c(=O)c4ccccc4n23)cc1 the results were MenB inh -1, Mtb MbtI inh -7, Polio RdRp inh 102 and Polio RdRp inh intensity 105.
Screening COC(=O)C(N)Cc1c[nH]c2ccccc12 (configuration not stated) returned Mtb MbtI inh -4, Polio RdRp inh 101 and Polio RdRp inh intensity 103.
For CCn1ncc(Cc2cnn(CC)c2C)c1C the results were MenB inh -6, Polio RdRp inh 105 and Polio RdRp inh intensity 101.
`CC(C)C(NC(=O)c1ccc(C(C)(C)C)cc1)C(=O)N1CCC1` (configuration not stated) gave MenB inh -8, Mtb MbtI inh -7, Polio RdRp inh 99 and Polio RdRp inh intensity 99.
`Cc1cc2ccccc2n1CCNC(=O)C12CC3CC(CC(C3)C1)C2` gave MenB inh -31, Mtb MbtI inh 8, Polio RdRp inh 103 and Polio RdRp inh intensity 92.
`CCN(C1CCS(=O)(=O)C1)S(=O)(=O)c1ccccc1` (configuration not stated) gave MenB inh -8, Mtb MbtI inh -7, Polio RdRp inh 102 and Polio RdRp inh intensity 107.
For CC(=O)Nc1ccccc1-c1nc2ccc(C(=O)N3CCN(c4cccc(C)c4)C(C)C3)cc2[nH]c1=O (configuration not stated) the results were MenB inh -26, Mtb MbtI inh -21, Polio RdRp inh 101 and Polio RdRp inh intensity 102.
`CCn1c(CSc2nc3ccccc3s2)nnc1SCC(=O)c1ccc2c(c1)OCCO2` gave MenB inh -51, Mtb MbtI inh -3, Polio RdRp inh 98 and Polio RdRp inh intensity 106.
Screening CCCNC(=O)C1CN(S(=O)(=O)c2ccc(C)cc2)c2ccccc2O1 (configuration not stated) returned MenB inh -12, Mtb MbtI inh -2, Polio RdRp inh 104 and Polio RdRp inh intensity 108.
Screening CC1CCCC(NC(=O)c2ccc3c(c2)NC(=O)CS3)C1C (configuration not stated) returned MenB inh -18, Mtb MbtI inh 14, Polio RdRp inh 102 and Polio RdRp inh intensity 91.

From PubChem BioAssay
